StopGo FLuc: Primary qHTS Assay for Foot and Mouth Disease Virus Antivirals against NCGC Sytravon and CBC Compound Libraries: Firefly Luciferase Signal; HEK cells with a luciferase reporter of 2A StopGo recoding; Potency, µM (doses to about 57.5 µM), for the others: top-dose signal change, negative = less light; actives 0.23% (n = 120,000); AID 1745856, 2022; active = well fitted falling curve with a large enough effect; inconclusive = small, poorly fitted or top-dose-only effect; inactive = no such curve, though single readings can be large or run the other way; also: nearly all actives have a fitted effect of over 60% in size; overnight with compound
StopGo RLuc: Primary qHTS Assay for Foot and Mouth Disease Virus Antivirals against NCGC Sytravon and CBC Compound Libraries: Renilla Luciferase Signal | HEK cells with a luciferase reporter of 2A StopGo recoding | Potency, µM (series often up to 57.5 µM), inactives show top-dose signal change, negative = less light | actives 0.32% (n = 120,000); active means well fitted falling curve with a large enough effect; inconclusive means small, poorly fitted or top-dose-only effect; inactive means no such curve, though single readings can be large or run the other way; also: nearly all actives have a fitted effect of over 55% in size; overnight with compound
* hit, by the source's call; ? = inconclusive; & = joins results of further samples; [ ] = remark or other dose. % is scaled to controls: 0 for no effect and ±100 for the full control effect; potency is read from the fitted curve at half-maximal effect. Only part of the results is shown (hit frequency here may not be typical).

item | molecule | StopGo FLuc | StopGo RLuc
1 | Cc1oc(-c2ccccc2)nc1C(=O)Nc1ccccc1C(N)=O | 103%[activator] | -3%
2 | Cc1ccc(CN(Cc2ccco2)C(=O)COc2ccc(Cl)cc2Cl)cc1 | -11% | -25%
3 | Cc1cc(=O)n(-c2ccccc2)n1C | 4% | -2%
4 | CCSCCC(=O)NCCC(=O)N(C)Cc1ccccc1 | 23% | 13%
5 | O=C(CCC(=O)c1ccc2c(c1)CCC2)Nc1ccc2c(c1)CCC2 | 124%[activator] | 10%
6 | COc1ccc(C(C)=O)cc1CS(=O)(=O)Cc1cccc(F)c1 | -12% | 12%
7 | COCCn1cnnc1SCc1ccc(F)cc1 | 6% | 0%
8 | O=C(NCc1cccnc1)c1ccc2c(c1)-c1ccccc1C2 | 8% | 25%
9 | CCN(CC)C(=O)c1sc2c(c1C)c(=O)n(CCc1ccccc1)c(=O)n2Cc1cc(C)ccc1C | -10% | -11%
10 | COc1ccc(-c2nc(CN3CCC(C(=O)NCCc4ccccc4)CC3)c(C)o2)cc1OC | 8% | 3%
11 | COc1ccc(-c2noc(CC(=O)N(C)c3cccc(C)c3)n2)cc1 | -21% | -3%
12 | Cc1ccc(NC(=O)c2cc(C)nc3ccccc23)cc1 | 25% | 8%
13 | Cc1c2cnn(CC(=O)Nc3ccc(F)cc3F)c(=O)c2c(C)n1Cc1cccc(Cl)c1 | 11% | -16%
14 | CCc1ccc(C(=O)COC(=O)[C@@H](NC(N)=O)[C@@H](C)CC)cc1 | 73%[activator] | -3%
15 | COC(=O)c1ccc(CNC2CCCCC2)o1 | 5% | 6%
16 | COc1ccccc1-c1c(C)nn2c(SCC(=O)NCc3ccc(C)cc3)cc(C)nc12 | 10% | 10%
17 | COCCN1C(=O)C(=O)/C(=C(/O)c2ccc(OCc3ccccc3)cc2C)C1c1cccnc1 (stereo not given) | 9% | -7%
18 | Cc1nc2ccccc2nc1SC(C)C(=O)N(C)Cc1ccccc1 (stereo not given) | ? | ?
19 | C/C(=N\NC(=O)C1CC1c1ccccc1)c1cccc(C)c1 (stereo not given) | 15% | 2%
20 | CCOc1ccccc1C(=O)N(Cc1ccc(N(C)C)cc1)CC1CCCO1 (stereo not given) | -11% | 43%[activator]

Additional structures follow.
item | molecule | StopGo FLuc | StopGo RLuc
21 | O=C(NC1CCCCCC1)c1cc2c(Cl)nc3ccccc3c2s1 | -15% | -13%
22 | COc1ccc(Cc2nc3c4c(C)c(C)n(CCO)c4ncn3n2)cc1OC | 0% | -1%
23 | O=C(COc1ccccc1-c1noc(COc2ccccc2)n1)N1CCCCCC1 | 108%[activator] | 53%[activator]
24 | COc1ccccc1CNC(=O)CSC1=NC2(CCCCC2)N=C1c1cccs1 | -1% | 16%
25 | COc1ccc(CNC(=O)c2cc3sccc3n2Cc2ccc(C)cc2)cc1 | 149%[activator] | 11%
26 | Cc1ccc(C)c(S(=O)(=O)Nc2ccc3c(c2)CCCN3C(=O)c2cccs2)c1 | ? | 99%[activator]
27 | O=C(Cn1c(=O)oc2cc(S(=O)(=O)NC3CCCC3)ccc21)Nc1ccc(F)c(F)c1 | 5% | 259%[activator]
28 | c1cc(CNCC2CCCO2)cs1 (stereo not given) | 7% | 4%
29 | Cn1c(=O)c2c(nc(Br)n2CC(=O)c2ccc(Cl)cc2)n(C)c1=O | -3% | -16%
30 | CC(=O)c1ccc(NC(=O)NC(=O)c2ccc(Cl)cc2)cc1 | 54%[activator] | 24%
31 | Cc1c(C)c2ccc(OCC(=O)NCCCn3ccnc3)cc2oc1=O | 18% | 12%
32 | Cc1ccc(N(C(=O)c2ccc(C(C)(C)C)cc2)C2C=CS(=O)(=O)C2)cc1Cl (stereo not given) | -2% | -9%
33 | O=CNNC(=S)NCc1ccco1 | -5% | -10%
34 | Cc1ccc(C(=O)c2cn(Cc3c(F)cccc3Cl)c3nc(C)ccc3c2=O)cc1 | -1% | 1%
35 | CC(SC(C)c1ccccc1F)C(=O)NC(N)=O (stereo not given) | -7% | -14%
36 | Cn1nc(C(=O)N2CCC(n3c(=O)[nH]c4ccccc43)CC2)c2ccccc2c1=O | -7% | -5%
37 | Cc1cccc(NC(=O)Cn2cc(S(=O)(=O)N3CCCC3)c(S(=O)(=O)N3CCCC3)c2)c1C | -10% | -14%
38 | CCOC(=O)Cn1c(=O)cc(C)c2c(C)nn(-c3cccc(F)c3)c21 | 0% | -9%
39 | O=C(Nc1ccc(-c2cn3cccnc3n2)cc1)c1cc(Br)ccc1Cl | 17% | 10%
40 | CCCCCCCCOc1ccc(OC(=O)c2ccncc2)cc1 | 1% | -4%

Next entries:
item | molecule | StopGo FLuc | StopGo RLuc
41 | FC(F)(F)c1ccc(C(c2ccccc2)N2CCNCC2)cc1 (stereo not given) | -13% | -19%
42 | O=C(/C=C/c1ccc(F)cc1)NNC(=O)c1ccc(NC(=O)C2CCCCC2)cc1 | -5% | 8%[1.06 µM]
43 | CCCN(CCC)CCNC(=O)c1nn(C)c2c1CS(=O)(=O)c1ccccc1-2 | 45%[activator] | 41%[activator]
44 | CC(=O)Nc1ccc(NC(=O)NC(C)c2ccc(F)cc2)cc1 (stereo not given) | 9% | 6%
45 | O=C(CCSCc1cccc(Cl)c1)NCCc1ccc(Cl)cc1 | -23% | -17%
46 | COc1ccc(CNC(=O)C23CC4CC(CC(C4)C2)C3)cc1 | 15% | 19%
47 | O=C(CSc1nc(=O)n(CCN2CCOCC2)c2c1CCC2)Nc1ccc(F)cc1F | -25% | 3%
48 | CC(C)(C)c1ccc(CN(Cc2ccco2)c2cnc(S(C)(=O)=O)nc2C(=O)Nc2ccc(F)cc2)cc1 | -6% | 1%
49 | CC(=O)N1CCCc2cc(S(=O)(=O)N3CCC(C(=O)NCc4ccc(N(C)C)cc4)CC3)ccc21 | 27% | 56%[activator]
50 | CCN1C(=O)c2ccccc2S(=O)c2ccc(C(=O)NCc3ccc(C)cc3)cc21 (stereo not given) | 11% | 21%
51 | CCOC(=O)c1cnc2nc(-c3ccccc3)nn2c1C | 169%[activator] | 1%
52 | CC(Oc1ccccc1Cl)C(=O)N1CCN(CCc2ccccn2)CC1 (stereo not given) | -15% | -5%
53 | Fc1ccc(NC(=S)NCCc2ccccn2)cc1Cl | 2% | 48%[activator]
54 | CCCCCCCCS(=O)CCO (stereo not given) | 0% | 10%
55 | COc1ccc(CCNC(=O)c2ccc(Cn3c(=O)c4ccccc4n(Cc4cccc(C)c4)c3=O)cc2)cc1OC | -19% | -8%
56 | CCOC(=O)c1c(NC(=O)CSc2ccccn2)sc2c1CCC2 | 3% | 9%
57 | O=C(NCc1ccccc1Cl)c1ccc2c(c1)N(Cc1ccccc1)C(=O)CS2 | -6% | 175%[activator]
58 | CCOC(=O)c1scc(-c2ccc(C)cc2)c1S(=O)(=O)Nc1ccc(F)c(F)c1 | -10% | 117%[activator]
59 | Cc1ccc2c(c1)C(O)(CC(=O)c1ccco1)C(=O)N2 (stereo not given) | 1% | 2%
60 | CCN(CC)S(=O)(=O)c1ccc(=O)n(Cc2noc(CC(C)C)n2)c1 | 15% | -4%

(next part)
item | molecule | StopGo FLuc | StopGo RLuc
61 | CC(C)C(=O)N1N=C(c2ccc3c(c2)OCO3)CC1c1ccc2nccnc2c1 (stereo not given) | 41%[activator] | -3%
62 | COc1ccc(C(=O)N(c2ccc(OC)cc2)S(=O)(=O)c2ccc3c(c2)n(C)c(=O)n3C)cc1 | 8% | 90%[activator]
63 | N#CCc1ccc(NC(=O)CNc2cccc(F)c2)cc1 | 137%[activator] | 73%[activator]
64 | COC(=O)c1ccc(NC(=O)C(NC(=O)c2ccccc2)C(C)C)c(C)c1 (stereo not given) | -4% | -3%
65 | COc1ccc(C(=O)COC(=O)c2cc(C)nc3c(C)cccc23)cc1 | 8% | 0%
66 | CC(C)c1nn2c(=O)cc(CSc3n[nH]c(-c4ccccc4F)n3)nc2s1 | 0% | 17%
67 | Cc1ccc(NC(=O)Cn2c(=O)n(Cc3ccc(C(=O)NCc4ccc5c(c4)OCO5)cc3)c(=O)c3ccccc32)cc1 | -17% | -8%
68 | Cc1ccc(CCNS(=O)(=O)c2ccc3c(c2)CC(C)N3C(=O)C2CCC2)cc1 (stereo not given) | ? | -3%
69 | COc1cccc2c1cc1c(=O)n(CC(=O)N3CCN(c4cc(Cl)ccc4C)CC3)nc(C)n12 | -9% | -6%
70 | CN(C)c1nc2c(c(=O)[nH]c(=O)n2C)n1CCOc1ccccc1 | 13% | 2%
71 | O=C(Cn1c(=O)n(CC2CCCO2)c(=O)c2ccccc21)Nc1ccc(F)cc1F (stereo not given) | -17% | -3%
72 | COc1ccc(-c2noc(CN(C(=O)Cc3ccc(C)cc3)C(C)C)n2)cc1 | 8% | 30%
73 | CCCCn1c(N)c(N(Cc2ccco2)C(=O)Cn2c(CC)nc3ccccc32)c(=O)[nH]c1=O | 0% | 3%
74 | O=C(NCc1ccco1)c1cc(-c2ccccn2)nc2cc(F)ccc12 | 7% | -5%
75 | CCOc1ccc(CN2C(=O)c3ccccc3Sc3ccc(C(=O)NCc4ccc5c(c4)OCO5)cc32)cc1 | 11% | 18%
76 | c1ccc2c(c1)sc1ccccc12 | -9% | -4%
77 | CCN1C(=O)c2ccccc2Sc2ccc(C(=O)NCCCN(CC(C)C)CC(C)C)cc21 | -10% | -11%
78 | COc1ccccc1-c1noc(-c2ccc(NC3CCCC3)c([N+](=O)[O-])c2)n1 | 140%[activator] | -4%
79 | O=C(COC(=O)c1ccc2ccccc2n1)Nc1cccc(Oc2ccccc2)c1 | 12% | -11%
80 | Cc1ccc(Nc2nc(C(=O)N3CCC(C(=O)N(C)Cc4ccccc4)CC3)cs2)cc1 | -3% | 22%

The list continues.
item | molecule | StopGo FLuc | StopGo RLuc
81 | COc1ccc(Cl)cc1NC(=O)c1cc(C)nn1-c1ccccc1 | 2% | 6%
82 | CCOCCCNC(=S)NC(c1ccccc1)c1ccccc1 | -21% | 23%
83 | CCOCCc1nn2c(=O)cc(COC(=O)c3ccc(NC(=O)c4cccs4)cc3)nc2s1 | 1% | -1%
84 | Cc1ccc(Cl)cc1N1CCN(C(=O)C2CCN(S(=O)(=O)c3cn(C)cn3)CC2)CC1 | -26% | -11%
85 | Cc1nn(-c2ccc(F)cc2)c(-n2cccc2)c1C(=O)NCCN1CCCCC1C (stereo not given) | -7% | -6%
86 | CCOC(=O)Cc1ccc(NC(=O)N2CCSc3ccccc32)cc1 | 40%[activator] | 69%[activator]
87 | CCCN[C@H]1CS(=O)(=O)C[C@@H]1S(=O)(=O)c1ccccc1 | 36%[activator] | 2%
88 | O=C(NCCNc1ccc2ccccc2n1)Nc1cccc2ccccc12 | 34%[activator] | 4%
89 | O=S(=O)(NC1CCSc2c(F)cccc21)c1cccc(Cl)c1 (stereo not given) | 22% | 0%
90 | CC1CCN(c2oc(/C=C/c3ccc(F)cc3)nc2C#N)CC1 | 259%&87%[activator] | 52%&0%[activator]
91 | O=C(Nc1ccccc1Cl)C1CCN(c2nc3ccccc3[nH]2)CC1 | 0% | -26%
92 | CCCc1c2oc(C(=O)O)cc(=O)c2cc2c(=O)cc(C(=O)O)n(CC)c12 | -13% | -6%
93 | COc1ccc(Cc2nnc(SCC(=O)Nc3ccc(Br)c(C)c3C)n2C)cc1 | 4% | 47%
94 | COc1cc(Br)c(C2CC(=O)Nc3cc(OC)c(OC)c(OC)c32)cc1OC (stereo not given) | -8% | 369%[activator]
95 | COc1cccc(N2CCN(C(=O)CCS(=O)(=O)c3ccc4c(c3)oc(=O)n4C)CC2)c1 | 0% | -13%
96 | CC(C)C(=O)OCc1cccc(OC(=O)[C@@H]2N3C(=O)[C@@H](NC(=O)Cc4ccccc4)[C@H]3SC2(C)C)c1 | -16% | -9%
97 | CCOc1ccc(C(=O)Nc2ccc3oc(-c4ccccc4C)nc3c2)cc1 | 44%[activator] | -6%
98 | Cc1cc(SCC(=O)c2ccc3c(c2)OCCO3)nc2ccccc12 | 0% | 0%
99 | N#Cc1ccc(NC(=O)CCC(=O)c2ccc3c(c2)CCC3)cc1 | 15% | 40%[activator]
100 | O=C(Nc1ccc(OCc2ccccc2)cc1)c1ccc[n+]([O-])c1 | 47%[activator] | 4%

(continued)
item | molecule | StopGo FLuc | StopGo RLuc
101 | Cc1cc(Cl)ccc1NC(=O)C(=O)NCc1ccco1 | 103%[activator] | -7%
102 | CCCn1c(Cn2ccnc2C)nc2cc(NC(=O)c3ccccc3)ccc21 | 237%[activator] | 63%[activator]
103 | O=C(Nc1cnc(N2CCN(c3ccccc3)CC2)c(C(=O)O)c1)c1cccs1 | -2% | 2%
104 | Cc1cccc(C(=O)NC2(C(F)(F)F)C(=O)Nc3c2c(=O)[nH]c(=O)n3Cc2cccnc2)c1 (stereo not given) | 5% | 0%
105 | COc1ccc(C(=O)/C=C/c2ccccc2Cl)cc1CSCC(=O)O | 0% | 6%
106 | O=C(NCCc1ccccc1)C(=O)NCC(c1cccnc1)N1CCN(c2ccc(F)cc2)CC1 (stereo not given) | 3% | -12%
107 | Cc1ccc(-c2noc(-c3ccc(NCc4cccnc4)c([N+](=O)[O-])c3)n2)cc1 | 68%[activator] | -5%
108 | Cc1cccc(CN2CCN(S(=O)(=O)c3cn(C)nc3C)CC2)c1 | 5% | -8%
109 | CCCCOc1ccc(NC(=O)COc2ccccc2OC)c2cccnc12 | ? | ?
110 | Cc1ccc2nc(CSc3nnc(NC(=O)COc4ccccc4F)s3)cc(=O)n2c1 | -16% | -3%
111 | Cc1ccc(COC(=O)c2ccccc2C(=O)c2ccc(Cl)cc2)cc1 | 50%[activator] | 6%
112 | COc1cccc(C2CC(=O)Nc3nc(N)sc32)c1OCc1ccc(F)cc1 (stereo not given) | -11% | -8%

High-throughput results from PubChem BioAssay.
